Screening data from PubChem BioAssay.
UUG fidelity: yeast start codon fidelity modulation; S. cerevisiae UUG-firefly luciferase reporter, luminescence/redox ratio; activity score, % at 18.7 µM; 350,000 compounds, 0.13% hits;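 active = replicate mean at a twofold rise or more, about +100% in these data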;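 note: firefly luciferase made from a UUG start codon reports start codon fidelity; reporter light over untreated wells divided by growth signal over untreated wells; some hits fall short of that in this replicate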
Env fusion inh: inhibitors of HIV Env-mediated cell fusion | HeLa-JRFL Env/CEM21 cell fusion, luciferase | inhibition, % at 12.3 µM | 360,000 compounds, 1.1% hits;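 active = mean replicate inhibition score of at least 50 and every replicate individually at or above 50; inconclusive = only one of the two criteria met; inactive = mean below 50 and not all replicates reaching 50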;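 note: 0% = plate neutral controls and 100% = maraviroc near 300 nM; one replicate is shown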
Rce1 inhib: yeast Ras-converting enzyme inhibition; Q03530; AID 2563; yeast membranes, quenched prenylated peptide cleavage fluorescence; 290,000 compounds, 0.27% hits; calls only;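 active = fall in fluorescence gain of 50% or more versus controls, with final raw signal at or below 3038400; inconclusive = same 50% fall but final raw signal above 3038400; inactive = fall in fluorescence gain under 50%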;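 note: plate controls were neutral control wells for no effect and wells lacking membranes for full effect; tested at 10 µM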
eIF4H inh: inhibitors of RNA binding by human eIF4H; Q15056; eIF4H fluorescence polarization binding assay; inhibition, % at 35 µM; 290,000 compounds, 0.94% hits; AID 2012;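 active = 50% or more with normal probe brightness, or confirmed in later tests; inconclusive = above 50% with abnormal brightness, or retests that disagree; inactive = below 50% or failed in later tests; about a fifth of its hits are not listed in these tables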;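 note: calls also rest on retests at 20 µM and on dose response follow-up; 0% = protein and probe with vehicle and 100% = probe without protein; strong numbers were not always called active; many hits fall short of the cut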
CSC inhib: cancer stem cell inhibition; 300,000 compounds, 1.1% hits; cancer stem cell-like cells viability, luminescence; inhibition, % at 7.5 µM; AID 2717;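 active = mean at 75% or more and at least half the replicates too; inconclusive = mean and replicates disagree; tested in HMLE shEcad cells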;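 note: 0% = median of negative and 100% = median of positive control wells; the first replicate is given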
MT1-MMP act inh: inhibitors of human MT1-MMP activation | 360,000 compounds, 0.061% hits | AID 651647 | GFP/RFP ratio change, % at 20 µM | HT1080 RFP-PRO-GFP cells, GFP/RFP ratio fluorescence, overnight; percent of plate control window, DMSO zero;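 active = GFP/RFP ratio change of at least 30% with cell ATP level not reduced by more than half and red fluorescence within 50% of control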; note: strong numbers were not always called active
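Material – HT1080 RFP-PRO-GFP cells · Control set – DMSO wells and RFP-L50D-GFP cells · Incubation – overnight cell settling, then overnight compound exposure, 37 °C, 5% CO2 · Compound dosing – single-point 20 µM compound, 1% DMSO · Read-out – GFP/RFP fluorescence ratio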
PABP polyA inh: blocks human PABP binding to poly(A) RNA | inhibition, % at 35 µM | P11940 | 290,000 compounds, 1% hits | fluorescence polarization | AID 2014;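 active = 50% or more with normal probe brightness, or confirmed in later tests; inconclusive = above 50% with abnormal brightness, or retests that disagree; inactive = below 50% or failed in later tests; about a fifth of its hits are not listed in these tables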;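 note: calls also rest on retests at 20 µM and on dose response follow-up; controls were probe without protein and protein plus probe with vehicle; some compounds called inactive have numbers as strong as hits; many hits fall short of the cut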
Target sequence (P11940 whole entry, looked up): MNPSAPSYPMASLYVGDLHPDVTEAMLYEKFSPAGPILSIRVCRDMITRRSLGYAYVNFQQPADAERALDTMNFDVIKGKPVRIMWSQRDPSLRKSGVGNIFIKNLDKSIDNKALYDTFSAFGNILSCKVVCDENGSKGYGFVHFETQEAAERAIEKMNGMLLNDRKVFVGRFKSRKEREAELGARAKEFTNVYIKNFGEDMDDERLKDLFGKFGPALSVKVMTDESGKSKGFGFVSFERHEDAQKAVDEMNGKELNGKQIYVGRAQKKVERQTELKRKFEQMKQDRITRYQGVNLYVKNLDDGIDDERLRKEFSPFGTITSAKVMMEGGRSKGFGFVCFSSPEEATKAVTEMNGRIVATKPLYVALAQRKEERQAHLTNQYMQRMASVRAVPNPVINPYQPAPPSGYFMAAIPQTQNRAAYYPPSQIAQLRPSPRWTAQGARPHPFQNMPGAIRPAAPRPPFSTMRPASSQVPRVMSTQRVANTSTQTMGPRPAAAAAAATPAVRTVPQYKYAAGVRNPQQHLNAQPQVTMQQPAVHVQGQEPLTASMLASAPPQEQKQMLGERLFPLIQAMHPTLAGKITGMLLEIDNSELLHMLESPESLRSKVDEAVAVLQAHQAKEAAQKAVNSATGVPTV
MT1-MMP act inh RFP: further read-out of MT1-MMP act inh, marked with its call; RFP signal change, %; measured here: RFP expression control read;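 0 = vehicle wells; hits needed this value within 50% of zero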
An asterisk follows results filed as active; i = inactive; ? = inconclusive; nt = no result given. An excerpt; the hit share may differ from the screen's.

nr	mol	UUG fidelity	Env fusion inh	Rce1 inhib	eIF4H inh	CSC inhib	MT1-MMP act inh	MT1-MMP act inh RFP	PABP polyA inh
1	CCCOc1ccc(C(C)=O)cc1Cc1c(O)nc(SC)[nH]c1=O	-6	1	i	-5	11	-4	3	2
2	Cc1ccc2nc(-c3ccc(NC(=O)C4CCCO4)cc3)[nH]c2c1 (stereo not drawn)	-59	-177	i	-4	-5	12	0	-3
3	O=S(=O)(c1ccccc1)N1CCN=C1SCc1ccccc1	nt	6	i	-9	-6	2	1	-15
4	CN(c1ccccc1)S(=O)(=O)c1cccc(NC(=O)c2cccc(C#N)c2)c1	-11	40	nt	nt	nt	4	-10	nt
5	CC12COC3(C(=O)Nc4ccc(Cl)cn4)CC1CCC32C (stereo not drawn)	nt	-39	i	-3	3	9	0	-5
6	CN(C(=O)c1ccccn1)c1nnc(-c2cnccn2)s1	-38	nt	i	-3	2	3	4	11
7	Cc1ccc(-n2ccnc(SCC(=O)NC3CCCC3)c2=O)cc1Cl	-7	12	i	nt	6	-1	0	nt
8	COc1cccc(-c2nc(CS(=O)CC(=O)NC3CCCCC3)c(C)o2)c1 (stereo not drawn)	-6	4	i	-2	9	2	4	-2
9	COC(=O)c1ccc(SCC(=O)NCc2ccccc2)c([N+](=O)[O-])c1	8	22	i	4	-8	-2	0	-2
10	COc1ccc(N2CCN(C(=O)COc3ncnc4ccccc34)CC2)cc1	7	6	i	-7	-7	6	3	-7
11	Fc1ccccc1-c1nc(NCC2CC2)nc2ccsc12	-8	14	nt	nt	nt	-1	-6	nt
12	COc1cccc(C(=O)NC2CCSC2=O)c1 (stereo not drawn)	-9	-26	i	2	-9	6	2	9
13	CN1CCN(NC(=O)c2cccc(C(F)(F)F)c2)CC1	nt	1	i	-11	-8	-1	-1	3
14	CSc1nc(C)cc(OCCO)n1	-15	-128	i	1	1	-6	0	7
15	Cc1cc(C)cc(N(CC(=O)N2CCN(c3ccccc3)CC2)S(=O)(=O)c2c(C)noc2C)c1	-10	-15	i	-8	8	-1	-2	5
16	CCOC(=O)N1CCC(n2c(SCC(=O)NCCC3=CCCCC3)nc3ccccc3c2=O)CC1	-4	-44	i	-2	-6	1	-9	2
17	O=[N+]([O-])c1ccc(Nc2ccccc2O)c2nonc12	25	-12	i	25	nt	-136	1	4
18	Cc1cccc(-n2c(O)c(C=NC3CCS(=O)(=O)C3)c3ccccc3c2=O)c1 (stereo not drawn)	-19	nt	i	-3	2	4	2	-2
19	O=C(N/N=C/c1cc2c(cc1Br)OCO2)c1cccnc1	nt	-2	i	-5	-7	2	3	-7
20	CCn1ncc(C2=NOC(C(=O)Nc3ccc(C)cc3)C2)c1C (stereo not drawn)	nt	42*	i	-12	-1	7	-5	4
21	CSc1nc(-c2ccco2)nn1S(C)(=O)=O	-13	12	i	6	nt	3	0	7
22	Cc1ccc(Cc2c[nH]c(=S)s2)cc1	nt	16	i	-2	-7	3	3	-15
23	Clc1cccc(C2CCN(Cc3nc(COc4ccccc4)no3)C2)c1 (stereo not drawn)	-10	14	i	1	-5	3	3	-3
24	N#CCOc1coc(CN2CCN(c3ccccc3)CC2)cc1=O	-10	6	i	-12	-7	2	7	-2
25	O=C(O)c1cccc(NS(=O)(=O)c2ccc(Oc3ccc(S(=O)(=O)Nc4cccc(C(=O)O)c4)cc3)cc2)c1	nt	1	i	nt	-8	-3	1	nt
26	Cc1ccc(C(=O)COC(=O)c2cnccn2)cc1C	nt	nt	i	-3	-11	nt	nt	-8
27	COc1cc(NC(=O)CSc2nnc(-c3cc(C)on3)o2)cc(OC)c1	-7	-7	nt	-16	-3	2	8	5
28	CCCCn1c(-c2ccc([N+](=O)[O-])cc2)n[nH]c1=S	-24	nt	i	0	-9	7	2	-11
29	NC(=O)COc1ccc(/C=N/NC(=O)C2CCCN2S(=O)(=O)c2ccc(Cl)cc2)cc1 (stereo not drawn)	8	nt	i	-8	-13	-2	0	-10
30	O=C(CSc1ncnc2c1cnn2-c1ccc(F)cc1)NCC1CCCO1 (stereo not drawn)	2	19	i	-12	11	-8	-20	-9
31	O=C(COC(=O)c1cccc(S(=O)(=O)N2CCCCCC2)c1)Nc1ccccc1	-14	-13	nt	nt	nt	1	1	nt
32	O=C(NN1C(=O)C2C3C=CC(C4CC34)C2C1=O)c1cccc(Br)c1 (stereo not drawn)	nt	18	i	10	-10	2	-5	-2
33	COc1ccccc1NC(=O)CN1CCN(CC(=O)Nc2ccc(F)cc2F)CC1	-11	10	i	-9	nt	-2	-4	-9
34	Cc1c(C(=O)OCC(=O)NC2CCCCC2)oc2ccccc12	-14	nt	nt	nt	-12	0	3	nt
35	Oc1ccc2ccccc2c1CNn1cnnc1	-11	-6	i	4	-8	5	-2	3
36	COc1ccccc1NC(=S)NNC(=O)c1ccncc1	-14	12	nt	-6	nt	-1	-2	0
37	O=c1[nH]nc(-c2ccc(F)cc2)cc1-c1ccccc1	-5	-6	i	2	-12	6	4	3
38	CCCCn1cc2c(c1-c1cccc(C)c1)c(=O)n(C)c(=O)n2C	nt	6	i	6	-10	0	-2	3
39	O=C(CSc1ncnc2ccccc12)c1cccs1	nt	-77	i	-1	3	-13	-7	-2
40	COc1cccc(-c2cc(C(=O)NC3CCCCC3)no2)c1	-1	-60	i	2	13	1	2	8
41	COc1ccccc1NC(=O)C1(c2ccccc2)CCCC1	-2	16	i	-10	36	-5	0	-2
42	CCc1noc(C)c1C(=O)Nc1nc2c(C)cc(C)cc2s1	-9	-3	i	nt	2	-3	-9	nt
43	c1ccc2c(OCCCCN3CCOCC3)cccc2c1	-9	14	i	4	2	-3	-1	-1
44	CCc1nccn1CCC(=O)N1CCCC(Nc2ccc(C(C)C)cc2)C1 (stereo not drawn)	-12	16	i	-2	29	3	1	0
45	COc1ccccc1Nc1nc(-c2sc(NC(=O)c3ccco3)nc2C)cs1	-10	6	i	-7	34	-2	1	-8
46	Cc1ccc(NS(=O)(=O)c2c(C)[nH]c(=O)[nH]c2=O)c(C)c1	-9	15	i	-10	-8	1	1	8
47	Clc1ccc(/C=C\c2nccc3c2[nH]c2ccccc23)cc1	nt	-21	?	-6	nt	-8	-5	-3
48	CC1(O)CC(c2ccc(Cl)cc2)=NN1C(=O)c1ccc([N+](=O)[O-])cc1 (stereo not drawn)	nt	14	nt	-5	86*	5	0	-6
49	CC(C)(CNC(=O)CC1C(=O)NCCN1Cc1cccc(F)c1F)N1CCOCC1 (stereo not drawn)	-14	-9	i	8	-10	1	3	11
50	CCOc1cccc(C(=O)NC(c2ccccc2)C(C)C)c1 (stereo not drawn)	-11	5	i	-9	-8	2	-2	-3
51	COc1cc2oc(=O)ccc2c(OC)c1CC(O)C(C)(C)O (stereo not drawn)	-3	0	i	-9	-15	0	2	-5
52	CN(C(=O)COc1ccc2c(-c3ccccc3)cc(=O)oc2c1)C1CCS(=O)(=O)C1 (stereo not drawn)	2	-2	i	2	-7	1	-1	3
53	COc1ccc(OC)c(/C=C/C(=O)c2ccc(Cl)cc2)c1	10	-29	nt	3	32	-15	-11	2
54	CCCNC(=O)c1c(NC(=O)C2COc3ccccc3O2)sc2c1CCCC2 (stereo not drawn)	-13	nt	i	13	-9	-2	0	-2
55	COc1ccc(C(=O)N/C(=C\c2ccccc2)C(=O)Nc2ccc(C(=O)NCC(=O)O)cc2)cc1	9	9	i	7	nt	-2	3	8
56	CC1(C)CN(C2CCCCC2)C(=O)[C@H]1CC(=O)Nc1ccccc1	-24	-8	nt	nt	nt	0	-4	nt
57	c1ccc(CSc2nnc(-c3ccccn3)n2-c2ccccc2)cc1	-4	28	i	-20	-17	8	-5	-4
58	COc1ccc(CNCc2ccc(C)cc2)c(OC)c1	-11	18	i	25	-14	4	1	14
59	CCCCNC(=O)Nc1ccnn1C1CCCCC1	-3	nt	i	8	1	-1	1	3
60	Cc1ccccc1Nc1nnc(SCC(=O)Nc2ncc(C(F)(F)F)cc2Cl)s1	nt	2	i	7	0	0	2	-4

More results
nr	mol	UUG fidelity	Env fusion inh	Rce1 inhib	eIF4H inh	CSC inhib	MT1-MMP act inh	MT1-MMP act inh RFP	PABP polyA inh
61	CC(C)C1C(=O)N(Cc2cn(CCC3OCCO3)nn2)CCS(=O)(=O)N1Cc1ccc(-c2cccc(N(C)C)c2)cc1 (stereo not drawn)	-10	2	nt	nt	nt	-3	-1	nt
62	CC(Oc1ccc(Cl)cc1)C(=O)Nc1nccs1 (stereo not drawn)	10	-111	i	-3	-8	-2	0	-6
63	COC(=O)c1ccccc1NC(=O)CSc1nc2ccsc2c(=O)n1CCCCC(=O)O	-16	3	nt	nt	nt	0	2	nt
64	COc1ccc(CNC(=O)CNC(=O)c2sc3ccccc3c2Cl)cc1OC	nt	16	i	nt	1	-1	-3	nt
65	CC1Cc2ccccc2N1S(=O)(=O)c1cccc(C(=O)OCC(=O)N2CCOCC2)c1 (stereo not drawn)	-9	1	nt	nt	-7	-1	1	nt
66	CC(=O)c1sc(NC(=O)C(C)(C)C)nc1C	-2	nt	i	-7	12	-2	-1	-4
67	CSc1nccc(-c2cc(Cl)sc2Cl)n1	-5	nt	i	-12	-1	-2	-2	1
68	COc1cc(CNc2nc(C)c([N+](=O)[O-])c(C)c2C#N)cc(OC)c1OC	nt	19	i	-8	2	-1	-20	0
69	NC(N)=NCCCC(NC(=O)c1ccccc1)C(=O)Nc1ccc([N+](=O)[O-])cc1 (stereo not drawn)	-9	-29	i	nt	-9	-1	4	nt
70	CCCN(CCC(=O)Nc1cc(OC)cc(OC)c1)CC1CC1	4	nt	i	22	-2	1	3	3
71	O=C(/C=C/Nc1ccc(Oc2ccccc2)cc1)c1ccco1	nt	-153	i	-3	-5	-1	-2	-1
72	Cc1c(Nc2nc3ccccc3nc2NS(=O)(=O)c2cccs2)c(=O)n(-c2ccccc2)n1C	-15	-49	i	-2	-12	-6	-2	33
73	O=C(OCc1ccc(Br)cc1)c1cccc(S(=O)(=O)N2CCCC2)c1	nt	-2	i	nt	-7	-2	-7	nt
74	O=C(O)c1ccccc1C(=O)c1ccc(Cl)cc1	nt	6	i	-6	-17	-1	3	8
75	Cc1cccc(C(=O)OCc2cncs2)c1	-10	-11	i	-5	-14	0	1	8
76	CCOC(=O)c1c(-c2cccs2)csc1NC(=O)c1ccncc1	-19	25	i	0	-6	4	-1	1
77	COc1ccc(-c2csc(N(CCCN(C)C)C(=O)c3ccc(F)cc3)n2)cc1	-11	34	i	2	8	-3	-7	-2
78	CCC(Sc1ccc2nnc(CCNS(=O)(=O)c3ccc(OC)cc3)n2n1)C(=O)OC (stereo not drawn)	nt	8	i	-9	-3	-6	-3	-4
79	COCCNc1nc2cc(-c3ccccc3OC)sc2c(=O)n1C	-21	50	nt	nt	nt	6	6	nt
80	CCCN(CCO)C1CCN(CCc2ccccc2)CC1	-6	0	i	0	6	3	5	2
81	CCN(C(=O)COC(=O)/C=C/c1c(C)nn(-c2ccccc2)c1C)c1c(N)n(Cc2ccccc2)c(=O)[nH]c1=O	-12	-1	nt	nt	nt	-2	0	nt
82	COc1ccc(CC(=O)Nc2c(C(=O)N3CCN(c4ncccn4)CC3)oc3ccccc23)cc1OC	-8	6	i	-1	-14	-4	2	-9
83	COc1ccc(Br)cc1CNC(=O)CN1C(=O)C(c2ccccc2)Oc2cccnc21 (stereo not drawn)	3	20	i	-2	11	-2	-1	-5
84	COc1ccc(-n2ccnc2)cc1	-9	8	i	-6	-17	3	3	-6
